# FGF22 binding: shifts melting point of recombinant human FGF22. recombinant FGF22 thermal shift, SYPRO orange fluorescence; percent of sucrose octasulfate shift, DMSO zero. calls only at 9.99 µM. 1.5% of 340,000 active;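 active = melting point raised past a set limit in the mean and every replicate; inconclusive = no clear call; three in four hits are not shown here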
# Target sequence (Q9HCT0 whole entry, looked up): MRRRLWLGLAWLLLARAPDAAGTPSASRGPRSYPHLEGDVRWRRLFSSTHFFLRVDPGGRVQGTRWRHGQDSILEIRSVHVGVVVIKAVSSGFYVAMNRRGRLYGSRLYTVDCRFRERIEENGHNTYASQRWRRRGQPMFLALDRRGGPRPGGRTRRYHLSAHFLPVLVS
# Bfl-1 A1 inh: inhibitors of the anti-apoptotic protein A1, read as caspase activation | MEF A1-2A-BIM cells, Caspase-Glo 3/7 luminescence, 3 h; percent of clofoctol response, vehicle zero | caspase activation, % (test concentration not listed) | 0.066% of 330,000 active | AID 2462;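 active = over half of replicate activation scores above 10%, or exactly half above 10 with the replicate mean above 10; inconclusive = replicate mean below 10 yet half the replicates above 10; inactive = over half of replicates below 10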;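 note: wells of about 30 µL received 50 nL stock; many hits fall short of the cut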
# Beta cell apopt: beta cell apoptosis inhibition; INS-1E cytokine-induced death, ATP luminescence, 48 h; percent of positive-control rescue, neutral wells zero; protection from apoptosis, % (test concentration not listed); 0.8% of 300,000 active;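 active = all replicates at 75% or more, or half of them and the mean; inconclusive = half reach 75% but not the mean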;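 note: 0% = cytokine-treated negative control wells and 100% = positive control rescue; higher means more ATP so stronger rescue from cytokine killing; wells of about 40 µL received 100 nL stock; the first replicate is given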
# UCH37 DUB inh: inhibitors of human deubiquitinating enzyme UCH37 | Q9Y5K5 | purified proteasome/UCH37, Ub-AMC cleavage fluorescence | inhibition, % (concentration not given with the values) | 0.33% of 330,000 active;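 active = mean of two replicates above 20%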;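 note: 0% = compound-free wells with enzyme and 100% = wells lacking proteasome; stock transfer was 100 nL into about 20 µL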
# Target sequence (Q9Y5K5 whole entry, looked up): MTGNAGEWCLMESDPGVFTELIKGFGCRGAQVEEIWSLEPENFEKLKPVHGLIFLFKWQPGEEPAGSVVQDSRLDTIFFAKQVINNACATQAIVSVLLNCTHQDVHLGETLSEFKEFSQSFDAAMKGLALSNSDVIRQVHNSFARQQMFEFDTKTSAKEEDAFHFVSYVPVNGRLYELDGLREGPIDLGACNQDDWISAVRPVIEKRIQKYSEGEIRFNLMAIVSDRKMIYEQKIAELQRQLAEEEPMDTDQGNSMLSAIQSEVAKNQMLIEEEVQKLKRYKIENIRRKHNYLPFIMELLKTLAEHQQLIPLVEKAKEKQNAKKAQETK
#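 Signal – fluorescence, ex 355 nm, em 460 nm · System – Proteasome-bound UCH37 · Input – 0.15 nM proteasome as dispensed · Timing – 30 min preincubation with enzyme, 25 min cleavage at room temperature · Read-out basis – percent inhibition of cleavage signal versus uninhibited and no-proteasome wells · Medium – Tris-HCl pH 7.4 with ATP-MgCl2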
# MLL AF4-AF9 inh: blocks AF4 peptide binding to human AF9. P42568. AlphaScreen, biotin-AF4 peptide binding to FLAG-AF9. inhibition, % at 10 µM. 0.47% of 350,000 active;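 active = every replicate reaching a set inhibition limit, whatever the replicate mean, cut at about 25% in these data; inconclusive = mean inhibition reaches that limit but some replicates miss it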;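 note: 0% = plate neutral control median and 100% = total signal loss; the record names both 10 and 1 µM as test concentration; the first replicate is given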
# Target sequence (P42568 whole entry, looked up): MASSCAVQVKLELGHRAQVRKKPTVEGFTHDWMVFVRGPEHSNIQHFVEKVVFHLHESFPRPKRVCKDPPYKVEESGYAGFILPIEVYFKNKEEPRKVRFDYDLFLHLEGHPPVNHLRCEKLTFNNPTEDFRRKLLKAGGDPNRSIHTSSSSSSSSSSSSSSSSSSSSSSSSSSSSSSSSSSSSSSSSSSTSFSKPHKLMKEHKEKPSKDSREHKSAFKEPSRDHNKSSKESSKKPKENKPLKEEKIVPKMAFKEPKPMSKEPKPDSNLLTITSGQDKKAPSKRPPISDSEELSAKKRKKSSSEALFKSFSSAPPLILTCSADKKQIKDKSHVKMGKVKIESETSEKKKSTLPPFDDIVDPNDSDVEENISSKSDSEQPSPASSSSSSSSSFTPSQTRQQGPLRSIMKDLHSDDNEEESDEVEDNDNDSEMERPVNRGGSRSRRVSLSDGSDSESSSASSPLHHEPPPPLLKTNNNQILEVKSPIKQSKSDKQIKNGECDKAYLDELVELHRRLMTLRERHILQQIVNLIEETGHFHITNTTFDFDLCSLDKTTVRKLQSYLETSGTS
# E coli growth: inhibitors of Escherichia coli growth; OD600, 23 h; stronger effect = lower value; OD600 absorbance (no concentration beside the values); 0.21% of 330,000 active;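 active = OD600 absorbance below the run mean of sample wells minus 3.6 SD, in any replicate, cut at about 0.56 in these data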;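 note: stock transfer was 300 nL into about 60 µL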
# Ecoli rRNA inh: inhibits bacterial ribosomal RNA function over humanized ribosomes; E. coli WT GFP vs humanized-ribosome RFP mutants, fluorescence, 24 h; stronger effect = lower value; DMSO median 0, no signal -100; GFP signal change (wild-type ribosome), % (test concentration not listed); 1.6% of 350,000 active; AID 720706;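 active = significant combined selectivity score with lowered wild-type GFP, culture density cut under 30%, mutant RFP and density less affected; inactive = any of these conditions unmet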; note: one replicate is shown; some compounds called inactive have numbers as strong as hits
# T cruzi repl: blocks replication of Trypanosoma cruzi; inhibition, % (no concentration beside the values); T. cruzi beta-gal in NIH3T3, luminescence, 90 h; AID 1885; 1.4% of 300,000 active;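 active = mean inhibition across valid replicates above about 55%, limit read from the data; inconclusive = mean below that limit but half or more replicates reach it; inactive = mean below it, under half of replicates reach it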;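 note: signal also drops with host cell toxicity which is not excluded here; 0% = plate median of DMSO wells and 100% = zero luminescence signal; higher percent means less beta-gal luminescence so fewer parasites; stock transfer was 50 nL into about 50 µL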
# Ecoli rRNA inh OD600: second read-out of Ecoli rRNA inh, no call of its own (marks repeat the call); OD600 change, %; measured here: OD600 growth;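 optical density of the mix in the first replicate; 0 = DMSO median and -100 = no signal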
# Ecoli rRNA inh RFP: also measured in Ecoli rRNA inh; calls as there; RFP signal change, %; measured here: RFP humanized mutant strains;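 first replicate; 0 = DMSO median and -100 = no signal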
# * = called active by the depositor; i = inactive; ? = inconclusive; . = not tested or not shown; + = active, no number. The list is partial; count on the stated rates, not on these rows.
smiles	FGF22 binding	Bfl-1 A1 inh	Beta cell apopt	UCH37 DUB inh	MLL AF4-AF9 inh	E coli growth	Ecoli rRNA inh	Ecoli rRNA inh OD600	Ecoli rRNA inh RFP	T cruzi repl
Cc1cccc2cc(CN(C(=O)c3cccc([N+](=O)[O-])c3)C(C)C)c(=O)[nH]c12	i	-0.2	-12	1.6	-0.7	0.75	8	5	-2.8	-10
C=CCn1c(CNC(=O)c2ccco2)nnc1SCC(=O)N1c2ccccc2Sc2ccccc21	i	0.1	-8	0.9	?	0.69	.	.	.	19
COc1ccc2c(CC(=O)N3CCN(S(=O)(=O)c4cccs4)CC3)coc2c1	.	0.9	3	1.3	.	0.73	.	.	.	12
CC(CCc1ccccc1)NC(=O)c1cccs1 (stereo not given)	i	0.0	-2	5.2	0.6	0.67	0	-1	-1.4	-11
Cn1ncc2c(Nc3cccc(Cl)c3)nc(Nc3cccc(Cl)c3)nc21	i	-1.0	52	.	0.8	.	6	-2	3.4	47
O=C(NCc1ccccc1)c1cccc(OCC(=O)N2CCN(C(=O)c3ccco3)CC2)c1	.	-0.4	-10	0.0	.	0.67	.	.	.	-8
CC(C)(C)c1n[nH]c(=S)n(N)c1=O	.	0.0	-5	0.7	.	0.66	.	.	.	-6
S=C(NCCCN1CCOCC1)N1CCN(c2ccccc2)CC1	i	0.5	-3	1.3	1.5	0.62	5	-1	-2.7	-3
CC1CCN(CCCNC(=O)CN2C(=O)CSc3ccc(S(=O)(=O)N4CCOCC4)cc32)CC1	i	0.4	2	0.6	-3.7	0.65	12	8	1.1	-5
Cc1cccc(C(=O)N2CCCC(c3nc(-c4ccc(C)o4)no3)C2)c1 (stereo not given)	i	0.2	-12	0.2	1.1	0.65	-4	-2	0.3	3
OCCCNc1nc(-c2ccccc2)c2cc(Cl)ccc2n1	i	-0.7	-5	-139	-14	0.65	-5	-1	2.5	18
O=c1cc(CN2CCOCC2)c2cc(Cl)c(O)cc2o1	i	-0.6	-10	i	2.4	0.72	15	-1	2.9	0
COc1ccccc1CNC(=O)c1ccccc1C(=O)NC(CC(C)C)C(=O)NCc1ccccc1OC (stereo not given)	i	-0.2	-10	4.3	1.4	0.71	6	6	-1.0	2
CCOc1cccc(C(=O)Nc2ccc3[nH]ncc3c2)c1	+	0.5	-3	0.5	2.0	0.61	3	-1	-3.6	5
COc1cc2ccccc2cc1C(=O)NNC(=O)c1ccccc1O	i	0.1	7	.	3.6	.	4	17	0.4	57*
C=CCSc1nc(-c2ccccc2)c2cc(Cl)ccc2n1	.	0.0	7	-15	.	0.75	.	.	.	18
COC(CNC(=O)c1ccc(CS(=O)(=O)c2ccc(Br)cc2)o1)OC	i	0.0	-4	0.5	-0.2	0.66	6	15	-1.5	-3
Cc1ccc(C(=O)N/C(=C/c2ccco2)C(=O)NCCc2c[nH]c3ccccc23)cc1	i	0.3	0	1.6	5.6	0.68	.	.	.	7
Cc1cnc(C)c(N(C)NC(=S)Nc2ccccc2)n1	i	0.9	-8	2.6	3.8	0.66	13	16	1.6	-11
O=C(/C=C/c1cccc(Br)c1)NCc1ccncc1	i	0.0	1	-3.7	1.1	0.66	0	-1	-0.1	-11
O=c1c2ccccc2[nH]c(=S)n1C1CCCCC1	.	-0.6	7	-0.3	.	0.77	.	.	.	-36
COc1cccc(N2CCN(C(=O)c3cc4cc(Cl)ccc4[nH]3)CC2)c1	i	-0.7	6	-0.2	9.6	0.68	-24	-28	-3.5	-13
C=CCN(c1ccccc1)S(=O)(=O)c1ccc(Cl)c(C(=O)OCC(=O)NCCCN2CCCC2=O)c1	i	0.1	-8	0.5	-0.3	0.71	-23*	4.1*	-1.6*	-16
COc1ccc(CCNC(=O)c2cnc(C)cn2)cc1	i	0.2	-2	1.1	-0.9	0.72	2	6	-0.1	5
CCN1CCN(Cc2ccc(NC(=O)c3cc(NC(=O)c4nccnc4N)cc(OC)c3)cc2C(F)(F)F)CC1	i	-1.2	-12	-0.6	?	0.7	2	-6	31	22
CCOC(=O)N1CCN(C(=O)CCc2ccc(S(=O)(=O)NCCc3ccccc3)cc2)CC1	i	0.4	-2	-1.6	8.9	0.66	-14	-14	-6.9	3
COc1ccc(CCNC(=O)CSc2n[nH]c(C)c2[N+](=O)[O-])cc1OC	i	0.1	-6	3.6	-6.7	0.69	-12	-1	-2.1	-3
Cc1cccc(NC(=S)NCCN(C2CCCCC2)C2CCCC2)c1	i	-0.9	3	2.3	8.2	0.63	-2	-34	29	17
CCCC(=O)Nc1cccc(NC(=S)NC(=O)C(C)Oc2ccc(Cl)cc2Cl)c1 (stereo not given)	i	0.2	-1	3.7	-2.0	0.7	-9	-17	7.6	2
NS(=O)(=O)c1ccc(NC(=O)COc2ncnc3sccc23)cc1	i	-0.3	4	-2.2	-19	0.69	7	4	-1.0	-8

# Sorted by molecular weight (falling): 6 of the compounds above
smiles	FGF22 binding	Bfl-1 A1 inh	Beta cell apopt	UCH37 DUB inh	MLL AF4-AF9 inh	E coli growth	Ecoli rRNA inh	Ecoli rRNA inh OD600	Ecoli rRNA inh RFP	T cruzi repl
CC1CCN(CCCNC(=O)CN2C(=O)CSc3ccc(S(=O)(=O)N4CCOCC4)cc32)CC1	i	0.4	2	0.6	-3.7	0.65	12	8	1.1	-5
CCOC(=O)N1CCN(C(=O)CCc2ccc(S(=O)(=O)NCCc3ccccc3)cc2)CC1	i	0.4	-2	-1.6	8.9	0.66	-14	-14	-6.9	3
O=C(NCc1ccccc1)c1cccc(OCC(=O)N2CCN(C(=O)c3ccco3)CC2)c1	.	-0.4	-10	0.0	.	0.67	.	.	.	-8
COc1cccc(N2CCN(C(=O)c3cc4cc(Cl)ccc4[nH]3)CC2)c1	i	-0.7	6	-0.2	9.6	0.68	-24	-28	-3.5	-13
Cc1cccc(C(=O)N2CCCC(c3nc(-c4ccc(C)o4)no3)C2)c1 (stereo not given)	i	0.2	-12	0.2	1.1	0.65	-4	-2	0.3	3
S=C(NCCCN1CCOCC1)N1CCN(c2ccccc2)CC1	i	0.5	-3	1.3	1.5	0.62	5	-1	-2.7	-3

# The results go on.
smiles	FGF22 binding	Bfl-1 A1 inh	Beta cell apopt	UCH37 DUB inh	MLL AF4-AF9 inh	E coli growth	Ecoli rRNA inh	Ecoli rRNA inh OD600	Ecoli rRNA inh RFP	T cruzi repl
CC(C(=O)Nc1ccccc1-c1ccccc1)N1CCOCC1 (stereo not given)	i	-0.4	-5	1.7	-45	0.65	-5	-1	-2.9	-5
CSc1nnc(CSc2cc(C)nc(N(C)C)n2)o1	i	0.1	-8	0.2	1.4	0.66	-1	3	-3.2	-3
CCCn1c(N)c(C(=O)CSc2n[nH]c(-c3ccccc3F)n2)c(=O)n(C)c1=O	i	-0.9	2	2.0	-6.1	0.65	-6	-1	1.3	.
NC(=O)c1ccc(NC(=O)CN2CCN(C(=O)c3ccco3)CC2)cc1	i	-0.2	-2	3.7	1.6	0.71	12	1	-2.8	5
COc1ccc(CCNC(=O)C2(C)CCC(=O)N2CCC(C)C)cc1OC (stereo not given)	i	0.2	-2	0.3	3.1	0.68	3	11	0.3	-8
Cn1c(=O)c2c(nc(NCC(O)CO)n2CCc2ccccc2)n(C)c1=O (stereo not given)	.	-0.3	1	6.3	.	0.76	.	.	.	-14
COc1cccc(Cn2cnc3c(NS(=O)(=O)c4cccc(Cl)c4Cl)c(C)c(C)cc32)c1	.	0.4	-1	-0.9	.	0.76	.	.	.	25
CCOc1ccc(C(=O)N2CCN(c3cccc(Cl)c3)CC2)cc1	i	0.4	-2	.	-5.5	.	-25	-49	3.7	-8
CCOc1ccc(N2CC(C(=O)Nc3cccnc3)CC2=O)cc1 (stereo not given)	i	-0.3	-2	2.8	-0.5	0.74	8	8	-1.8	15
COc1cc(/C=N/NC(=S)N/N=C/c2cc(OC)c(OC)c(OC)c2)cc(OC)c1OC	i	-1.0	-6	.	-1.0	.	-13	-6	16	5
CC(=O)c1cn(CC(=O)NCC2CCCO2)c2ccccc12 (stereo not given)	.	-0.5	-2	4.4	.	0.71	.	.	.	5
Cc1cc(C)cc(N(C(=O)c2csnn2)C(C(=O)NC2CCCCC2)c2cccnc2)c1 (stereo not given)	i	-0.4	-5	3.8	0.6	0.7	3	6	-3.1	13
O=C(CN1CCN(Cc2ccccc2)C1=O)NCc1cccs1	i	0.3	.	4.8	-13	0.77	1	-3	-1.3	5
CC(NC(=O)CCN1C(=O)c2ccccc2C1=O)c1ccccc1 (stereo not given)	i	-0.8	-1	3.7	-5.3	0.67	13	12	1.2	-12
CCC(=O)NCCc1nc2ccccc2n1CC	i	-0.5	-3	1.9	-11	0.69	4	-3	-6.1	-6
O=C(CSc1nc(=O)n(CCCN2CCOCC2)c2c1CCC2)Nc1cccc(F)c1	i	0.8	-3	4.2	5.3	0.65	8	11	-0.2	14
c1ccc(-c2noc(CN3CCN(c4cnccn4)CC3)n2)cc1	i	0.3	3	2.3	-0.1	0.63	20	5	2.7	-2
O=C(COC(=O)/C=C/c1ccccc1)NC(=O)NC1CCCCC1	i	0.0	-1	-0.2	1.6	0.67	-6	6	4.2	.
CN(C)C(CNC(=O)c1cc(Br)ccc1Cl)c1ccco1 (stereo not given)	i	0.5	-6	-0.7	-0.1	0.69	3	10	0.4	-2
CCn1c(=NC(=O)c2ccc(S(=O)(=O)N3CCOCC3)cc2)sc2cccc(OC)c21	.	0.0	88*	-140	.	0.77	.	.	.	46
COc1ccc2c(CC(=O)NCc3cccs3)coc2c1	i	0.6	-6	-1.4	1.2	0.7	-4	0	15	-10
COC(=O)c1ccc(CSc2nncn2N)cc1	i	-0.1	.	1.2	-0.8	0.67	23	27	2.2	1
CC(=O)Oc1ccc(CC(C(=O)O)N2C(=O)c3ccccc3C2=O)cc1 (stereo not given)	i	-0.1	-5	4.9	-1.6	0.67	14	15	-1.8	-11
Cc1cc(NC(=O)CSc2nncn2-c2ccccc2)no1	i	0.1	-7	1.3	-1.5	0.69	8	9	-1.2	-11
CCOc1ccccc1OCC(=O)Nc1cc(C)on1	i	-0.3	0	3.3	-1.4	0.64	.	.	.	.
O=C1N=C(c2ccccc2)S/C1=C\c1cccs1	.	-0.9	12	1.8	.	0.63	.	.	.	-10
Cc1sc(NC(=O)c2cccc(N3C(=O)CCC3=O)c2)nc1-c1ccccc1	i	0.1	.	-26	2.0	0.68	-28	-32	-5.7	-4
CC(=O)N1CCN(C(=O)c2ccc(NS(=O)(=O)c3cc(C)ccc3C)cc2)CC1	i	-0.9	.	-2.3	-2.7	0.7	6	7	-0.5	11
N#Cc1cccc(-n2nnnc2-c2ccc3c(c2)OCO3)c1	.	-0.3	-1	-0.6	.	0.7	.	.	.	11

# Bioassay records deposited in PubChem by several laboratories.
